# Screens (PubChem)
# GCN5L2 inh: inhibitors of human GCN5L2 histone acetyltransferase. 390,000 compounds, 0.21% hits. Potency, µM (titrated, usually from 58.9 µM), for the others: at the top dose activity change, negative = inhibition, most hits filed as inhibitors. GCN5L2 HAT assay, ThioGlo1 CoA-SH fluorescence. AID 504327; active = well fitted inhibition curve with a large enough effect; inconclusive = small, poorly fitted or top-dose-only effect, or another doubt; inactive = no such curve, though single readings can be large or run the other way
# Target sequence (Q92830 whole entry, looked up): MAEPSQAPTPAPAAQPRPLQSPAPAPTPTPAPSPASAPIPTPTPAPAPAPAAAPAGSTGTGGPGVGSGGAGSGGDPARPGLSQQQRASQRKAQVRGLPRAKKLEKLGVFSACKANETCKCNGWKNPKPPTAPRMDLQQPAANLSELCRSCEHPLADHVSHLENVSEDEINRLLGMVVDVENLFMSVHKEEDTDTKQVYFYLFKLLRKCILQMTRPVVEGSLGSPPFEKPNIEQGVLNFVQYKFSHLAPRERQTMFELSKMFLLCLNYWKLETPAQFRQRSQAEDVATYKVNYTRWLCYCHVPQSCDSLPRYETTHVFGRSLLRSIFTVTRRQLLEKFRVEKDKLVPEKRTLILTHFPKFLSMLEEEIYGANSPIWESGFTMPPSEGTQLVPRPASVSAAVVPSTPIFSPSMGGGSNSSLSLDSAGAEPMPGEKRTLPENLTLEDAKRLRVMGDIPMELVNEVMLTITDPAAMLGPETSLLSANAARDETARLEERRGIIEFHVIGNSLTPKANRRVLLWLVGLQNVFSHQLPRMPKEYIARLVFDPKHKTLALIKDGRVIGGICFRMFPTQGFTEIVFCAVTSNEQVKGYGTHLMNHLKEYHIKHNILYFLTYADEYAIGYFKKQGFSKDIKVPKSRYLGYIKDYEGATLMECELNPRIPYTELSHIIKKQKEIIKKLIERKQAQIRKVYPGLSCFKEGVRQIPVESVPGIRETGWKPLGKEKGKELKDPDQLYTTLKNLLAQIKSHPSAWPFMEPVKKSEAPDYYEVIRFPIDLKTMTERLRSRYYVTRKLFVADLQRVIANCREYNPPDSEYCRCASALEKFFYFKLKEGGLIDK
#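 GCN5L2 (20nM final) in 50mM HEPES, 0.1mM EDTA pH 7.5, 0.01% Tween-20 was preincubated 15 min at room temperature with compound, then given ThioGlo1 (50uM), H3(1-25) peptide (75uM) and acetyl-CoA (70uM); CoA-thiol fluorescence (Ex340/Em540) was read at 0 and 20 min.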
# The depositor's hits bear a star; ? = inconclusive; & = joins results of further samples. % is scaled to controls: 0 for no effect and ±100 for the full control effect; potency is read from the fitted curve at half-maximal effect. The list is partial, and most or all hits are left out here.
GCN5L2 inh | canonical_smiles
-0.2% | CCOC(=O)C1=C(N)N(c2cc(S(=O)(=O)N3CCOCC3)ccc2Cl)C(=O)C1
-0.4% | CCC(C)NC(=O)c1ccccc1NC(=O)CN1C(=O)c2ccccc2S1(=O)=O (centres undefined)
-4.1% | CC1Cc2ccccc2N1C(=O)c1cc2cccnc2n(C)c1=O (centres undefined)
28.6% | Cc1ccc(C)c(NC(=O)CN(C)C(=O)Cc2ccccc2)c1
-5.8% | NC(=O)CSc1nnc(CNc2cccc(Cl)c2)n1CCc1ccccc1
0.7% | Cc1cccc(-c2nc(CS(=O)CC(=O)N3CCc4ccccc4C3)c(C)o2)c1 (centres undefined)
-2.8% | CC(=O)c1cc(CN2CCN(C3CCCCC3)C(CCO)C2)cs1 (centres undefined)
-9.1% | O=C(NCc1ccccc1)c1onc(CSc2ccc(F)cc2)c1C(=O)NCCCN1CCOCC1
0.0% | COc1ccccc1S(=O)(=O)N1CCC(C(=O)O)(c2ccccc2)CC1
-8.6% | O=C(NCC(=O)N1CCN(c2ccc([N+](=O)[O-])cc2)CC1)c1ccco1
-8.5% | CC1CCCC(C)N1NC(=O)c1ccc(Cl)c(S(N)(=O)=O)c1 (centres undefined)
0.3% | COc1ccc(S(=O)(=O)NC2(C(F)(F)F)N=C(c3ccccc3)NC2=O)cc1 (centres undefined)
-22.7% | O=S(=O)(Nc1nc2ccccc2nc1NCCO)c1cccc(Cl)c1
-5.7% | Cc1cc(C)cc(NC(=O)CCCCCN2C(=O)[C@@H]3Cc4ccccc4CN3C2=O)c1
-6.3% | CCOc1ccc(N(CC(=O)Nc2ccc(C)c(C)c2)S(C)(=O)=O)cc1
-3.9% | Cc1ccc(NC(=O)C2CCN(S(=O)(=O)c3c(C)noc3/C=C/c3cccs3)CC2)cc1F
-4.7% | Cc1nnc(NC(=O)CSc2n[nH]c(-c3ccccc3C)n2)s1
? | CCOc1ccc(S(=O)(=O)NCCC(=O)N2CCC(Cc3ccccc3)CC2)cc1
-1.1% | N#CC1=C(N)Oc2c(O)cc3ccccc3c2C1c1ccsc1 (centres undefined)
-3.6% | CCOc1ccc(N2CC(C(=O)Oc3ccccc3)CC2=O)cc1 (centres undefined)
-1.8% | COc1ccc(/C=C(/NC(=O)c2ccccc2)C(=O)N2CCCC2)cc1OC
-10.4% | O=C(C1CCCO1)N1CCN(c2ccccn2)CC1 (centres undefined)
? | COc1ccc(C2CC(c3cccs3)=NN2c2ccccc2)cc1 (centres undefined)
-5.4% | COCc1cc(C)nc2sc3c(=O)oc(C)nc3c12
-4.5% | CCOC(=O)C1=C(C)OC(N)=C(C#N)C1c1ccc(C)s1 (centres undefined)
-7.4% | COc1ccc(-c2noc(COc3ccc(C)c(C)c3)n2)cc1OC
-15.2% | COc1ccc(C(=O)n2nc(-c3ccccc3)nc2SC)cc1
-10.7% | CCN(CC)C(=O)[C@H]1C[C@H](CC(=O)NCc2ccc(OC)c(OC)c2)C(=O)N2CCc3c([nH]c4cc(-c5ccco5)ccc34)[C@]12C
-8.9% | COc1cccc(-c2nnc(SCC(=O)NC3CCS(=O)(=O)C3)n2C)c1 (centres undefined)
-5.9% | Cc1ccccc1N(C)C(=O)c1coc(=O)c2ccccc12
-7.2% | O=C(Nc1nnc(CCN2CCOCC2)s1)c1ccccc1
-1.1% | Cc1cccc(C)c1NC(=O)c1ccc(-c2ccc(Cl)cc2Cl)o1
-9.0% | COc1cc(C(CCN2CCCC2)c2c(OC)cc(OC)c3ccc(=O)oc23)cc(OC)c1OC (centres undefined)
-9.1% | Cc1c(Cl)cccc1NC(=S)NCc1ccccc1Cl
-2.6% | Cc1cc(NC(=O)CCC(=O)N(c2ccccc2F)C(C(=O)NC2CCCC2)c2ccccc2)no1 (centres undefined)
-8.0% | O=C(Nc1ccc(Cl)c(-c2nc3cc(Cl)ccc3o2)c1)c1cc([N+](=O)[O-])ccc1N1CCOCC1
1.7% | C[C@H]1CN([C@@H](C)CO)C(=O)c2cccc(NC(=O)C3CC3)c2O[C@H]1CN(C)Cc1ccncc1
4.6% | COc1ccc(S(=O)(=O)NC(C)C(=O)NCc2cccnc2)cc1Cl (centres undefined)
-5.1% | CC(=O)Nc1ccccc1C(=O)C(=O)NCCc1ccccc1
-6.8% | Cc1cc(N2CCOCC2)nc(N)n1
-19.1% | COc1ccc(OCC(=O)N2CCN(C(=O)c3cccc(F)c3)CC2)cc1
-6.5% | O=C(CCCN1C(=O)c2cccc3cccc(c23)C1=O)Nc1nccs1
-5.6% | COc1ccc(/C=N/NC(=O)c2cccc(NC(C)=O)c2)c(C(=O)O)c1OC
-0.7% | C[C@H](N)C(=O)NC[C@H]1O[C@@H](n2cnc3c(N)ncnc32)[C@H](O)[C@@H]1O
3.5% | O=C(NC1CC2CCCC(C1)N2Cc1ccccc1)C1CCCCC1 (centres undefined)
-8.6% | C/C(=N\NC(=O)c1ccc(CN2CCOCC2)cc1)c1ccc([N+](=O)[O-])cc1
-0.6% | CC(C)Cc1csc(NC(=O)c2ccccc2Cl)c1C(=O)O
-10.3% | CC(C)c1c(O)c(-c2cc3c(c(C(C)C)c2O)CCC2C(C)(C)CCC[C@@]32C)cc2c1CCC1C(C)(C)CCC[C@@]21C (some centres undefined)
-5.8% | O=C(COc1ccc(Cl)cc1Cl)N/N=C/CCc1ccccc1
0.4% | Cc1cccc(CCNC(=O)c2ccc3c(c2)nc2n3CCOC2)c1

# 5 entries from above, arranged by count of non-hydrogen atoms, falling:
GCN5L2 inh | canonical_smiles
1.7% | C[C@H]1CN([C@@H](C)CO)C(=O)c2cccc(NC(=O)C3CC3)c2O[C@H]1CN(C)Cc1ccncc1
-8.6% | C/C(=N\NC(=O)c1ccc(CN2CCOCC2)cc1)c1ccc([N+](=O)[O-])cc1
-8.9% | COc1cccc(-c2nnc(SCC(=O)NC3CCS(=O)(=O)C3)n2C)c1 (centres undefined)
-7.2% | O=C(Nc1nnc(CCN2CCOCC2)s1)c1ccccc1
-6.8% | Cc1cc(N2CCOCC2)nc(N)n1

# Following part.
GCN5L2 inh | canonical_smiles
-6.5% | CC(C)c1ccc(NC2CCCN(C(=O)c3cccc4nccnc34)C2)cc1 (centres undefined)
-4.9% | CC1CCC2(CC1)NC(=O)N(Cc1nnc(-c3cccs3)o1)C2=O (centres undefined)
-13.8% | O=C(Nn1cnc2ccccc2c1=O)c1ccc([N+](=O)[O-])cc1
-1.1% | Cc1ccc(S(=O)(=O)NC(CC(C)C)C(=O)N2CCOCCOCCOCCOCC2)cc1 (centres undefined)
-2.2% | CCCCN(Cc1cc2ccccc2[nH]c1=O)C(=O)c1cccc(Cl)c1
-6.7% | O=C1CSC(c2cccnc2)N1c1ccc(F)cc1 (centres undefined)
-2.2% | COc1ccc(N2CC(NC(=O)N(C)CCC#N)CC2=O)cc1 (centres undefined)
1.3% | COc1ccc(Cn2c(=O)[nH]c3cc(C(=O)N4CCN(c5cccc(OC)c5)CC4)ccc3c2=O)cc1
-9.5% | CCn1cc([C@@H]2C[C@H]3CN(Cc4cccc(Cl)c4)C(=O)[C@]34CCCN24)cn1
1.7% | COc1ccc(OCC(=O)c2c[nH]c3ccccc23)cc1
-3.8% | COc1ccccc1OCCn1cc(C(=O)O)c2ccccc21
-29.3% | CCC1(CC)NC(=O)N(CC(=O)OC(C)C(=O)Nc2cc([N+](=O)[O-])ccc2OC)C1=O (centres undefined)
-4.6%&-6.6% | C=CCSCC1Nc2cc(Cl)c(S(N)(=O)=O)cc2S(=O)(=O)N1 (centres undefined)
-5.0% | CCc1c(C(=O)Nc2cc(C)ccc2OC)[nH]c(C)c1C(C)=O
-2.4% | O=C(NCCSCc1ccccc1)c1ccccc1
-3.9% | O=[N+]([O-])c1ccc(NC(=S)N2CCN(c3ccc(F)cc3)CC2)cc1
-1.8% | Cc1cc(OCC(=O)O)c2cccc(C)c2n1
-3.9% | CC1CC(C)CN(C(=O)COc2ccc(-c3nnco3)cc2)C1 (centres undefined)
-1.0% | COc1ccc(Cl)cc1NS(=O)(=O)c1c(C)nc2scc(C)n2c1=O
-12.6% | O=C(COC(=O)/C=C/c1cccc(Cl)c1)Nc1ccc2[nH]c(=O)[nH]c2c1
0.8% | COc1ccc2c(c1)[nH]c1c(=O)n(Cc3ccco3)cnc12
3.0% | COC(OC)c1ccnc(-c2ccc(OC(C)=O)cc2)n1
-8.2% | O=C(Nc1ccc2ccccc2c1)[C@@H]1C[C@H]1[C@@H](NP(=O)(c1ccccc1)c1ccccc1)c1ccccc1
-20.7% | CN(C(=O)COC(=O)c1ccc(Cl)cc1N)C1CCCCC1
-2.5% | COc1cc(NC(=O)CN2C(=O)C(=O)N(C3CCCC3)C2=O)cc(OC)c1
-0.8% | COCCN1C(=O)c2ccccc2C(C(=O)NCCN(C)C)C1c1ccc(F)cc1 (centres undefined)
-27.7% | COc1ccc(/C=N/NC(=O)CSCC(=O)Nc2ccccc2)cc1
-7.9% | COc1ccc(CC(=O)N(Cc2nc(-c3ccc(C)cc3)no2)C(C)C)cc1
0.8% | COCCCNc1nc2ccccc2nc1NS(=O)(=O)c1ccc(C)c(C)c1
4.7% | COc1cccc(-c2nnc(-c3cc4cc(Cl)ccc4oc3=O)o2)c1
3.8% | O=S(=O)(NCCS(=O)(=O)N1CCN(c2ccccc2)CC1)c1ccc(Br)cc1
1.2% | Cc1ccc(C(=O)OCC(=O)Nc2ccc(N(C)C)cc2)cc1NC(=O)c1ccco1
-5.9% | COc1ccc(CCNC(=S)NC(=O)c2cccc([N+](=O)[O-])c2)cc1OC
-5.7% | CC(C)c1c(O)nc(SCCN(C)C)[nH]c1=O
-8.4% | COc1ccc(NC(=O)CSc2nc(C)cc(C)c2C(=O)Nc2cccc(C)c2)cc1
-6.9% | CC(NC(=O)[C@H](C)NC(=O)N1CCn2c1nc1ccccc12)c1ccccc1 (some centres undefined)
3.2% | COc1ccc(CCC(=O)NNC(=O)c2ccccn2)cc1OC
-17.0%&-3.2% | CCC(=O)N1CCc2cc(S(=O)(=O)CCC(=O)NCc3ccccc3OC)ccc21
-12.1% | CC(C)(C)N(Cc1ccccc1)C(=O)COC(=O)CCc1c[nH]c2ccccc12
-9.7% | COc1ccc(N2CCN(C(=O)NCc3ccc(OC)c(OC)c3)CC2)cc1
-1.4% | Cc1ccc(CNC(=O)c2ccc3c(c2)N(Cc2ccccc2F)C(=O)c2ccccc2S3(=O)=O)cc1
-5.5% | CC(C)(C)c1ccc(C(=O)NNC(=O)C2CCCCC2)cc1
-9.8% | O=C(Nc1nc2cc3c(cc2s1)OCO3)C1CCCCC1
-1.3% | Cc1ccc(S(=O)(=O)NCc2nc3nc(C)cc(C)n3n2)cc1
-12.7% | CCOC(=O)c1cncc(C(=O)O)c1
-1.7% | COc1cc(CCCN2C(N)=NC[C@@H]2Cc2ccccc2)cc(OC)c1OC
-2.7% | CC(=O)c1ccc(OC(=O)c2ccc(Br)o2)cc1
-4.5% | CC1(C)C(=O)OC(c2cccs2)C2(CCCCC2)C1=O (centres undefined)
-9.7% | O=C(CN1C(=O)COc2ccc(S(=O)(=O)NC3CCCC3)cc21)Nc1ccc(F)c(Cl)c1
-1.6% | CCOc1ccccc1OCC(=O)Nc1ccc(Cl)cc1Cl

# Reprinted from the part before: five entries; new compounds follow.
GCN5L2 inh | canonical_smiles
-1.7% | COc1cc(CCCN2C(N)=NC[C@@H]2Cc2ccccc2)cc(OC)c1OC
-2.7% | CC(=O)c1ccc(OC(=O)c2ccc(Br)o2)cc1
-4.5% | CC1(C)C(=O)OC(c2cccs2)C2(CCCCC2)C1=O (centres undefined)
-9.7% | O=C(CN1C(=O)COc2ccc(S(=O)(=O)NC3CCCC3)cc21)Nc1ccc(F)c(Cl)c1
-1.6% | CCOc1ccccc1OCC(=O)Nc1ccc(Cl)cc1Cl
? | CCC(C)c1ccc(S(=O)(=O)N2CCN3CCCC3C2)cc1 (centres undefined)
-9.5% | Cc1oc(-c2cc(Cl)cc(Cl)c2)cc1C(=O)NCCc1ccccc1
7.2% | CC1CC(C)(C)NC(=S)N1CC(=O)N1CCN(Cc2ccc3c(c2)OCO3)CC1 (centres undefined)
-2.3% | CCCc1cc(=O)[nH]c2nnc(SCC)n12
-3.8% | CCCCc1nnc(NC(=O)COC)s1
4.8% | O=C(O)/C(=C\c1ccccc1)c1ccccc1
? | CN(CC(=O)NCCc1ccccc1)S(=O)(=O)c1ccc(Br)cc1
-28.7% | COc1cccc2c(=O)cn[nH]c12
-2.1% | Cc1ccc(S(=O)(=O)N(CC(=O)N2CCOCC2)C2CCCCC2)cc1
-6.4% | CCOC(=O)CSc1nc(=O)n2cccc(C)c2n1
1.5% | Cc1cc2occ(CC(=O)NNC(=O)c3ccccc3F)c2cc1C
-7.9% | CO/N=C/NC(=O)Cc1cn(-c2ncc(C(F)(F)F)cc2Cl)c2ccccc12
-1.0% | Cn1cnc(S(=O)(=O)N2CCN(c3ccc(Cl)cc3)CC2)c1
2.8% | O=C(CSc1nnc(CNC(=O)c2cccs2)o1)Nc1cccc(C(F)(F)F)c1
-6.1% | Cc1ccc(-c2nnc(N3CCCCC3)c3ccccc23)cc1S(=O)(=O)N1CCN(C)CC1
2.2% | C=CCS(=O)(=O)N1CCC(CCOc2ccccc2)(C(=O)OCC)CC1
-6.5% | O=C(Nc1cccc(C(F)(F)F)c1)n1cc(-c2ccccn2)c(N2CCOCC2)n1
-3.8% | COCC(COCCCNC(=O)Nc1ccc(Br)cc1)OC (centres undefined)
-3.0% | COc1ccc(-c2cc(C(=O)NCc3cccnc3)no2)cc1OC
-0.8% | Cc1ccccc1C(=O)N1CCCN(C(=O)c2ccccc2C)CC1
-8.2% | O=[N+]([O-])c1cccc(/C=N/Nc2nccnc2Cl)c1
-2.4% | COC(=O)c1ccc(OC)c(OC)c1Cl

# Filtered by structure, those above with a tert-butyl group.
GCN5L2 inh | canonical_smiles
-12.1% | CC(C)(C)N(Cc1ccccc1)C(=O)COC(=O)CCc1c[nH]c2ccccc12
-5.5% | CC(C)(C)c1ccc(C(=O)NNC(=O)C2CCCCC2)cc1
